Compound activity (PubChem BioAssay)
Resorufin fluor – qHTS Assay for Spectroscopic Profiling in Resorufin Spectral Region; 59,000 compounds, 0.04% hits; max dye-equivalent concentration, M; Compound fluorescence, resorufin region 547/598 nm, buffer; stronger effect = higher value; active = above 10 nM dye equivalent; inconclusive = 1 to 10 nM; inactive = 1 nM or less; a few of its hits are not listed in these tables; note: highest value over a series up to 38 µM
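Compounds in 100 mM Tris, pH 8.0, incubated 15 min at room temperature, then fluorescence read at 547 nm excitation/598 nm emission. Signal converted to dye-equivalent concentration via an on-plate six-point resorufin standard curve, per compound concentration.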
A647 autofl – qHTS Assay for Spectroscopic Profiling in A647 Spectral Region. Compound fluorescence, A647 channel (570/671 nm), Tris buffer. max dye-equivalent concentration, M. AID 592, 2007. 59,000 tested, under 10 active; active means above 1 µM dye equivalent; inconclusive means 0.1 to 1 µM; inactive means 0.1 µM or less;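 note: values scaled relative to a standard on each plate; highest value over a series up to 38 µM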
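Compound fluorescence was measured in 100 mM Tris buffer, pH 8.0, after 15 min at room temperature, using 570 nm excitation and 671 nm emission filters. Signal was normalized to a per-plate Alexa 647 standard curve and expressed as dye-equivalent concentration at each compound concentration.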
TSHR ag – qHTS Assay for Agonists of the Thyroid Stimulating Hormone Receptor. Thyrotropin receptor (Homo sapiens), P16473. HEK293-CNG-TSHR cells (CNG channel as cAMP sensor), membrane potential dye, cAMP. Potency, µM (highest dose often 57.1 µM), inactives show top-dose activation, most hits filed as activators. 73,000 compounds, 0.48% hits; active = well fitted activation curve of enough size with the parental cells flat; inconclusive = any curve in the parental cells; inactive = parental cells flat and receptor cells flat or falling; note: potency is the fitted concentration of half-maximal effect; % of control where 0% means no effect; weak receptor curves with flat parental cells got no call and are not listed
Target sequence (P16473 whole entry, looked up): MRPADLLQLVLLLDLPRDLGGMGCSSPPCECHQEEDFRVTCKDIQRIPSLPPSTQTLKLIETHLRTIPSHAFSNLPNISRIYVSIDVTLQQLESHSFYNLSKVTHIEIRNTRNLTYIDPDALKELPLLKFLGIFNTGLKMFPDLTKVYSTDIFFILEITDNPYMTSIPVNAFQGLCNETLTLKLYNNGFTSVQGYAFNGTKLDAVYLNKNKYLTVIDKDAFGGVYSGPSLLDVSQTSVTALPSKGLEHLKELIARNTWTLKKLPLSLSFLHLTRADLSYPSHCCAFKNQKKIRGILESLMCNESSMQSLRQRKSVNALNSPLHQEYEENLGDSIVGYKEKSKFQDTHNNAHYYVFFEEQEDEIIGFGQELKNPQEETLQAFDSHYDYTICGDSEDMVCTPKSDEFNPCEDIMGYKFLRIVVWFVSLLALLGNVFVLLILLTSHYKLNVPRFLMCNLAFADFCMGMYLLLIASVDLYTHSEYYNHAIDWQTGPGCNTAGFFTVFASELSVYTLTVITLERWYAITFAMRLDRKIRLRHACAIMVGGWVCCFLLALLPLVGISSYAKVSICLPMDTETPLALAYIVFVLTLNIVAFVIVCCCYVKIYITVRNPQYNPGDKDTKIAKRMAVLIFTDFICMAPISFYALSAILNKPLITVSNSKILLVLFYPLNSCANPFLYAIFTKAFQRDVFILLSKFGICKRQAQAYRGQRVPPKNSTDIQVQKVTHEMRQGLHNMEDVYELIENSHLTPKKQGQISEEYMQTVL
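cAMP rise detected as CNG-channel membrane depolarization by fluorescent dye (emission 590 nm), 30 min after compound, following 60 min dye loading containing 100 uM RO 20-1724 at room temperature. Cells: TSHR/CNG HEK 293, with parental CNG HEK 293 as control.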
A488 fluor – qHTS Assay for Spectroscopic Profiling in A488 Spectral Region; AID 591, 2007; max dye equivalency, M; 59,000 compounds, 0.1% hits; compound autofluorescence, A488 spectral region, dye equivalency; stronger effect = higher value; active = above 10 nM dye equivalent; inconclusive = 1 to 10 nM; inactive = 1 nM or less; about half of its hits are not listed in these tables;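 note: highest value over a series up to 38 µM; compound alone in buffer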
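Intrinsic compound fluorescence is measured in 100 mM Tris buffer at pH 8.0 following 15 min incubation at room temperature. Intensities at 480 nm excitation/540 nm emission are calibrated to an on-plate A488 concentration series, giving dye-equivalent concentrations.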
Starred values were filed as active, the others as inactive; i = inactive. Some of the compounds tested, so the mix of outcomes need not match the whole.

SMILES	Resorufin fluor	A647 autofl	TSHR ag	A488 fluor
CC[C@H]1C(=O)OC[C@@H]1Cc1cncn1C	i	1e-09	19%	i
